Screening results as filed in PubChem BioAssay.
TRPV1 PAM = HTS Assay for Compounds that Act as Potentiators of the Vanilloid Receptor 1; Transient receptor potential cation channel subfamily V member 1 (Homo sapiens), Q8NER1; TRPV1-expressing cells, Fluo-8 calcium influx, capsaicin EC20 potentiation; host cell line not named in the record; control for the full effect not named in the record; potentiation, % at 8.33 µM; actives 0.02% (n = 320,000); active means potentiation above 80%; inconclusive means 30% to 80%; inactive means below 30%; note: 0% is about no effect
Target sequence (Q8NER1 whole entry, looked up): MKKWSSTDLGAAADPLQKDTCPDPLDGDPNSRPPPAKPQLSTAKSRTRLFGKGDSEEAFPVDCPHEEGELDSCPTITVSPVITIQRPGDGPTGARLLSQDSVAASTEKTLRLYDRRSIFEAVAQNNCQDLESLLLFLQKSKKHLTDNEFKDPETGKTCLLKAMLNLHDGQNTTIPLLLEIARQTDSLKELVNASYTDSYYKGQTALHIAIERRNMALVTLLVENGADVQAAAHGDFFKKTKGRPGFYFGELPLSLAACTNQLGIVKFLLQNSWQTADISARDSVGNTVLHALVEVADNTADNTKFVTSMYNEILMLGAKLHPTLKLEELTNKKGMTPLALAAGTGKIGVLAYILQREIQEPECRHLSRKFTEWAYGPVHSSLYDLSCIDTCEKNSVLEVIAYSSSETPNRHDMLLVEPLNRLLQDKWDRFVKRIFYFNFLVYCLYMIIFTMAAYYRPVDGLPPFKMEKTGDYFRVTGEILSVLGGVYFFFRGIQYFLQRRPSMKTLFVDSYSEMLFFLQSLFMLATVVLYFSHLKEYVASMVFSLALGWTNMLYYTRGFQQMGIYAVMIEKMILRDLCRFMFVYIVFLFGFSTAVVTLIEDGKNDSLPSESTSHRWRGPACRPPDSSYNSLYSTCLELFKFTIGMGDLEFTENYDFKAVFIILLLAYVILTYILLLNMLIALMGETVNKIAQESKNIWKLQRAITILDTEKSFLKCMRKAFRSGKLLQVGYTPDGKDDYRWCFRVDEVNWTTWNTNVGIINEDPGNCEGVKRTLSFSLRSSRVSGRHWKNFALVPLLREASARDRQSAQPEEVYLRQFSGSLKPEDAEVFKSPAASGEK
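TRPV1-expressing cells were cultured overnight at 35.5C and loaded with Fluo-8 calcium dye for 40 to 90 min at room temperature. After a 10 s baseline, compound was added and calcium influx was read kinetically for 3 min (ex 480/em 520 nm).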
CtBP-E1A inh = qHTS Assay for Inhibitors of the CtBP/E1A Interaction. CtBP / adenovirus E1A interaction (AlphaScreen). AlphaScreen GST-E1A/His-CtBP binding, 1536-well; stronger effect = lower value; control for the full effect not named in the record. activity change, % (test concentration not listed). actives 0.49% (n = 340,000); in the data active means activity change below about -65%; inconclusive means about -30% to -65%; inactive means above about -30%; note: % is set by controls: 0 for no effect and ±100 for the full control effect; compound concentration not given in the record
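Homogeneous bead-based format: GST-tagged E1A captured on glutathione donor beads, His-tagged CtBP on nickel acceptor beads; compounds precede bead addition by 2 h at 37 °C.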
Sfp inh = qHTS Assay for Inhibitors of Bacillus subtilis Sfp phosphopantetheinyl transferase (PPTase); Potency, µM, for the others: max response, negative = inhibition, hits mostly inhibitors; Biochemical Sfp PPTase activity, qHTS; actives 3.5% (n = 310,000); 4'-phosphopantetheinyl transferase ffp (Bacillus subtilis), Q9F4F7; active = well fitted inhibition curve with a large enough effect; inconclusive = small, poorly fitted or top-dose-only effect, or another doubt; inactive = no such curve, though single readings can be large or run the other way;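 note: the enzyme is Sfp with the accession as filed and its product quenches rhodamine fluorescence; potency is the fitted concentration of half-maximal effect; 0% = enzyme reaction without inhibitor and -100% = no enzyme wells; top concentration of the series not given in the record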
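After 15 min at room temperature with compound, 15 nM Sfp received 5 uM rhodamine-CoA plus 12.5 uM BHQ-2-ybbR (50 mM Hepes pH 7.6, 10 mM MgCl2). Rate came from the fluorescence difference over 30 min, ex 525/em 598 nm.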
ClpP mod = qHTS Assay for Activators of ClpP; purified B. subtilis ClpP, FRET peptide cleavage, 20 min; AID 651965, 2013; Potency, µM (series often up to 57.5 µM), without a hit: at the highest dose activity change, negative = active; actives 1.9% (n = 340,000); active = well fitted falling curve with a large enough effect; inconclusive = small, poorly fitted or top-dose-only effect; inactive = no such curve, though single readings can be large or run the other way; note: potency is the fitted concentration of half-maximal effect; the source files actives as falling curves though it sought activators and does not explain the sign; nearly all actives have a fitted effect of over 65% in size; many hits overshoot -100%
Target sequence (P80244 whole entry, looked up): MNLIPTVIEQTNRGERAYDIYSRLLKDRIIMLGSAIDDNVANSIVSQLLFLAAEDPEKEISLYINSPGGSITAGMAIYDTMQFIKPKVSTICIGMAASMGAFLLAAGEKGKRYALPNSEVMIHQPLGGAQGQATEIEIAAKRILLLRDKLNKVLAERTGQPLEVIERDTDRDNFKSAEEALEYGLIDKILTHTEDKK
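ClpP 10 microg/mL final, pH 8 Tris/KCl buffer with BSA, glycerol, Tween-20; compound pinned in; FRET-FV substrate; RT 20 min; Ex320/Em430; ΔFRET vs ADEP 5.8 microM, DMSO, no enzyme.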
Menin MLL FP FL = qHTS Assay for Inhibitors Targeting the Menin-MLL Interaction in MLL Related Leukemias: Competition With Fluorescein Labeled MLL-derived Peptide | AID 1766, 2009 | FP activity change, % at 61.4 µM | Fluorescence polarization, fluorescein-MLL peptide displacement from menin | 290,000 tested, under 10 active; inconclusive = falling polarisation curve, or a change in total fluorescence; inactive = total fluorescence flat and polarisation flat or rising; no compound was filed as active; the % refers to the polarisation; negative = inhibition;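 note: % of control where 0% means no effect; inhibitors lower the polarisation; unlabelled MLL peptide was the positive control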
gsp antag = qHTS for Antagonists of gsp, the Etiologic Mutation Responsible for Fibrous Dysplasia/McCune-Albright Syndrome: qHTS | gsp-mutant cells, cAMP HTRF, 30 min; control for the full effect not named in the record | Potency, µM (doses to about 76.9 µM), for inactives: at the highest dose activity change, negative = inhibition, actives largely listed as inhibitors | actives 0.4% (n = 340,000) | AID 624288, 2012; active = falling curve of any shape with a large fitted effect; inconclusive = falling curve, mostly with a smaller effect; inactive = flat or rising curve; cell line not stated here;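 note: intracellular cAMP measured with PDE inhibitor Ro 20-1724 present during compound exposure; potency is the fitted concentration of half-maximal effect; % is set by controls: 0 for no effect and ±100 for the full control effect; nearly all actives have a fitted effect of over 65% in size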
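HTRF cAMP read-out (cAMP-d2 plus anti-cAMP antibody-K in lysis buffer, 30 min RT). Before lysis, cells are exposed to compounds with […] for 30 min at 37C in DPBS containing Ca/Mg, BSA and Tween 20.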
gsp agonist = qHTS for Agonist of gsp, the Etiologic Mutation Responsible for Fibrous Dysplasia/McCune-Albright Syndrome: qHTS. actives 0.13% (n = 340,000). Potency, µM (top dose mostly 76.9 µM), without a hit: at the top dose activation (cAMP increase), hits mostly activators. AID 624287, 2012. gsp mutant cells, cAMP HTRF, 30 min; control for the full effect not named in the record; active = well fitted activation curve with a large enough effect; inconclusive = small, poorly fitted or top-dose-only effect, or another doubt; inactive = no such curve, though single readings can be large or run the other way; cell line not stated here;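 note: phosphodiesterase inhibitor Ro 20-1724 added with compounds to block cAMP breakdown; potency is the fitted concentration of half-maximal effect; nearly all actives have a fitted effect of over 60% in size; about a fifth of the inactives were tested at one dose only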
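Cells in DMEM/10% FBS with G418 were pretreated with compounds in DMSO plus […] (300 uM stock) for 30 min at 37C. cAMP was measured by HTRF (cAMP-d2 plus anti-cAMP antibody-K) after 30 min at room temperature.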
* hit, by the source's call; u = inconclusive; x = no result given; & = joins results of further samples; [ ] = another dose, or the depositor's remark.

canonical_smiles	TRPV1 PAM	CtBP-E1A inh	Sfp inh	ClpP mod	Menin MLL FP FL	gsp antag	gsp agonist
COC(=O)c1ccc(NC(=O)CCc2nnc3ccc(NCc4ccco4)nn23)cc1	1	-23	-23%	-13%	-1.0	1%	u
CCN(CC(=O)Nc1c(F)cccc1F)C(=O)c1ccc2ccccc2n1	10	-17	x	x	x	3%	-19%[15.4 µM]
O=C(CCCOc1ccccc1)N1CCc2ccccc2C1	x	18	-1%	-0.4%	-0.1	0%	-22%
COc1cccc(/C=C2\SC(=O)N(CC(=O)NC3C=CS(=O)(=O)C3)C2=O)c1 (stereo not given)	0	x	-6%	-3.3%	x	0%	-34%[inhibitor]
C=CCn1c(-c2c[nH]c3ccccc23)n[nH]c1=S	11	0	-17%	-5.9%	3.2	20%	u
CCOc1ccc2[nH]c(=O)c(CN(CCc3ccccc3)C(=O)N3CCCC3)cc2c1	1	-10	8%	u	1.0	-6%	10%
CCc1ccccc1OCCCCN1CCCC1	-15	1	3%	1.0%	-0.6	-3%	u
COc1ccc([C@@H]2CC=C(C(=O)O)[C@H](c3ccccc3F)N2S(=O)(=O)c2ccccc2C)cc1	14	x	x	-0.4%	x	-11%	-17%
C=CCn1c(SCC(=O)Nc2ccc(S(N)(=O)=O)cc2)nnc1-c1cnccn1	24	15	5%	-1.2%	x	7%	11%
Cc1ccn2cc(-c3cccc(NC(=O)c4cccs4)c3)nc2c1	-9	-17	2%	1.6%	-2.6	-3%	22%[15.4 µM]
CN(CC(=O)O)S(=O)(=O)c1cccs1	7	3	3%	-2.7%	2.1	12%	-3%
CCCC12CN3CCN(CC(C3)/C1=N\NC(=O)c1ccc(C(C)(C)C)cc1)C2	1	6	7%	1.2%	5.9	5%	-19%
CCN1C(=NCc2ccco2)N[C@@H](c2cccc(F)c2)C(C(=O)OC)=C1C	30&-1	25	-5%&5%	-0.1%	8.4&0.1	5%	1%
O=C(CSc1ncnc2c1cnn2-c1ccccc1)NC1CCCC1	-11	0	x	-0.6%	x	14%	u
CN(C)CCCCNCCCNC(=O)/C=N\O	0	-6	12%	-0.2%	0.7	1%	-19%
CCOCCCn1c(SCC(=O)Nc2oc(C)c3c(C)n[nH]c(=O)c23)nnc1-c1ccncc1	7	-1	x	x	x	15%	27%[15.4 µM]
CCCCNC(=O)/C(=C/c1ccco1)NC(=O)c1ccco1	2	8	6%	-2.9%	-2.8	7%	0%[15.4 µM]
COC(=O)c1cc2c(s1)-c1ccccc1OC2	x	59	-7%	3.6%	1.8	8%	-31%[inhibitor]
Cc1nn(C2CCS(=O)(=O)C2)c(C)c1CN(C)C(=O)c1ccc(S(=O)(=O)N(C)C)cc1 (stereo not given)	x	x	x	1.4%	x	-2%	-8%
O=C(Nc1cc(=O)[nH]c(=O)[nH]1)c1cccc(C(F)(F)F)c1	6	5	12%	-0.8%	-3.9	13%	11%
COc1ccc(OC)c(-c2csc3nnc(SCC(=O)Nc4ccc(NC(C)=O)cc4)n23)c1	-5	1	-11%	-0.6%	1.7	-40%	8%
Cc1cc(C)n(-c2ccc(C(=O)Nc3ccc4c(c3)OCCO4)cc2)n1	-37	-1	1%	1.7%	-1.2	-9%	3%
O=C(NC1CCCCCC1)C1CCN(C(=O)c2ccc(Cl)cc2)CC1	1	-1	x	0.8%	x	12%	-30%
CCn1cc(S(=O)(=O)c2ccc(C)cc2)c(=O)c2cc(F)c(N3CCN(C)CC3)cc21	u	-1	-1%	3.9%	3.8	-15%	-19%
CC(C)[C@H](NC(=O)c1ccccc1)C(=O)OCC(=O)NCC1CCCO1 (stereo not given in full)	x	6	x	-0.8%	x	3%	10%

Five compounds out of the list above, sorted by their value in CtBP-E1A inh, ascending.
smiles | CtBP-E1A inh | Sfp inh | Menin MLL FP FL | gsp antag | gsp agonist
Cc1ccn2cc(-c3cccc(NC(=O)c4cccs4)c3)nc2c1 | -17 | 2% | -2.6 | -3% | 22%[15.4 µM]
O=C(NC1CCCCCC1)C1CCN(C(=O)c2ccc(Cl)cc2)CC1 | -1 | x | x | 12% | -30%
C=CCn1c(-c2c[nH]c3ccccc23)n[nH]c1=S | 0 | -17% | 3.2 | 20% | u
O=C(Nc1cc(=O)[nH]c(=O)[nH]1)c1cccc(C(F)(F)F)c1 | 5 | 12% | -3.9 | 13% | 11%
C=CCn1c(SCC(=O)Nc2ccc(S(N)(=O)=O)cc2)nnc1-c1cnccn1 | 15 | 5% | x | 7% | 11%

More structures
canonical_smiles	TRPV1 PAM	CtBP-E1A inh	Sfp inh	ClpP mod	Menin MLL FP FL	gsp antag	gsp agonist
COc1ccc(OCCC(=O)OCC(=O)NC(=O)NC(C)C)cc1	2	-4	0%	0.0%	-0.9	9%	-16%
CCOC(=O)c1ccc(-c2c(-c3cc(OC)c(OC)c(OC)c3)noc2C)cc1F	-2	-18	-10%	-7.5%&-6.0%	6.2	5%	x
COC(=O)c1cnc(Oc2ccc(NC(=O)NC(=O)c3c(OC)cccc3OC)cc2)cc1C(F)(F)F	x	7	20%	3.6%	3.1	0%	4%[15.4 µM]
CCN(CC)c1cnn(C/C(=N\OC)c2ccc(Cl)cc2)c(=O)c1Br	-11	3	-1%	-0.8%	-1.3	6%[15.4 µM]	15%
CCCNC(=O)NC(=O)CSc1nncs1	5	23	-1%	x	0.7	4%	u
CCOc1ccc(NC(=O)CC2C(=O)N(CC)C(=S)N2NC(=O)c2ccncc2)cc1 (stereo not given)	9	0	19%	-4.8%	-0.1	13%	7%[15.4 µM]
CS(=O)(=O)Oc1ccc(Br)c2cccnc12	23	x	-1%	-2.0%	6.1	11%	20%
C[C@@H]1C[C@H]2[C@@H]3C[C@H](F)C4=CC(=O)C=C[C@]4(C)[C@@]3(Cl)[C@@H](O)C[C@]2(C)[C@H]1C(=O)COC(=O)C(C)(C)C	2	0	x	3.3%	x	2%	x
Cc1ccc(C(=O)COC(=O)c2c(C)cc(=O)oc2C)cc1[N+](=O)[O-]	5	-1	-17%	-17%	5.3	-8%	-2%
C[C@@H]1CN([C@@H](C)CO)C(=O)CCCn2nncc2CO[C@H]1CN(C)S(=O)(=O)c1ccc(Cl)cc1	x	20	x	0.5%	x	x	20%
CC(=O)Nc1cccc(NC(=S)Nc2cccc(Cl)c2Cl)c1	-4	-2	32µM*	-0.9%	3.5	6%	-4%[15.4 µM]
CC12CCC(C(=O)NC3CCCC3)(CC1=O)C2(C)C (stereo not given)	23	-8	18%	-0.7%	3.1	2%	-18%
CCc1nn(CCCC(=O)NC2CCCCC2C)c(=O)c2cc3occc3n12 (stereo not given)	x	2	x	-1.7%	x	x	u
COc1ccc(-c2[nH]ncc2N=Nc2ccccc2)cc1	19	u	u	x	4.4	-12%	-45%[inhibitor]
O=C(/C=C/c1ccccc1)NC(=S)NNC(=O)c1cccnc1	-1	u	23%	1.3%	5.1	-2%	7%
O=C(O)c1ccc(-n2nc(C(F)(F)F)cc2-c2cccs2)cc1	6	x	4%	-3.3%	-1.3	-15%	-8%
Cc1cc(Cl)ccc1C(=O)C1CCCN(C(=O)c2cnn(C(C)C)c2)C1 (stereo not given)	-15	1	9%	2.7%	x	-12%	-15%
CN(C)S(=O)(=O)c1ccc(N2CCCC2)c(C(=O)Nc2ccccc2F)c1	-2	0	x	-1.0%	x	2%	-13%
COc1ccccc1C(=O)Nc1nnn(C)n1	12	-1	24%	-7.5%	2.2	4%	-28%
Cc1ccc(Cn2nc(C)c(NC(=O)C3(C)CC3(Br)Br)c2C)cc1 (stereo not given)	15	5	17%	0.0%	1.0	13%	u
Cc1ccc(N2CC(C(=O)Nc3ccc4c(c3)OCO4)CC2=O)cc1C (stereo not given)	-12	-11	-2%	x	-0.2	0%	3%[15.4 µM]
O=C(Oc1ccc(-c2ccccc2)cc1)C1C2CCCCC21 (stereo not given)	-7	-18	-10%	-1.2%	7.0	13%	-15%[15.4 µM]
Cn1c(=O)n(-c2ccc(Cl)cc2)c(=O)c2c3c(sc21)COC(C)(C)C3	-7	0	7%	-0.8%	1.4	u	-19%
CSc1nc(O)c(C(c2ccc(F)cc2)c2c(O)nc(SC)[nH]c2=O)c(=O)[nH]1	x	-1	x	x	x	8%	-9%
O=C(c1ccco1)N1CCN(Cc2cccc(F)c2)CC1	-3	-6	11%	-1.5%	0.9	17%	-50%[inhibitor]

Single records, from the list above. Order of screens: TRPV1 PAM, CtBP-E1A inh, Sfp inh, ClpP mod, Menin MLL FP FL, gsp antag, gsp agonist
CC(=O)Nc1cccc(NC(=S)Nc2cccc(Cl)c2Cl)c1 across the screens: -4, -2, 32µM*, -0.9%, 3.5, 6%, -4%[15.4 µM]
Cc1cc(Cl)ccc1C(=O)C1CCCN(C(=O)c2cnn(C(C)C)c2)C1 (stereo not given) across the screens: -15, 1, 9%, 2.7%, x, -12%, -15%
C[C@@H]1C[C@H]2[C@@H]3C[C@H](F)C4=CC(=O)C=C[C@]4(C)[C@@]3(Cl)[C@@H](O)C[C@]2(C)[C@H]1C(=O)COC(=O)C(C)(C)C across the screens: 2, 0, x, 3.3%, x, 2%, x

The list continues.
canonical_smiles	TRPV1 PAM	CtBP-E1A inh	Sfp inh	ClpP mod	Menin MLL FP FL	gsp antag	gsp agonist
Cc1ccc(CN2CCN(Cc3ccncc3)CC2CCO)o1 (stereo not given)	-7	0	9%	x	-2.3	6%	-17%[15.4 µM]
CCOC(=O)Cc1c(C)nc(SC)[nH]c1=O	-11	3	16%	x	-2.4	9%	-2%[15.4 µM]
CCOC(=O)CSc1nnc(-c2ccc(OC)cc2)n1CC	24	1	20%	1.1%	1.8	-16%	-5%
O=C(O)c1cc(Nc2cc(Cl)c3nonc3c2[N+](=O)[O-])ccc1O	u	x	45µM*	2.8%	u	-13%	29%
C=C(C)Cn1c(SCCN2CCOCC2)nc2c1c(=O)[nH]c(=O)n2C	-5	7	-9%	0.2%	4.9	3%	0%
